# High-throughput results (PubChem BioAssay)
# AmpC inh no det: Promiscuous and Specific Inhibitors of AmpC Beta-Lactamase (assay without detergent); 71,000 compounds, 1.8% hits; AmpC nitrocefin hydrolysis, absorbance 480 nm, no detergent; potencies from a single point are estimates; AID 585, 2007; Potency, µM (doses to about 28.7 µM), for the others: top-dose activity change, negative = inhibition; P00811; active = falling curve, for most hits resting on a single point; inconclusive = weak or doubtful change; inactive = flat or rising curve; further: % of control where 0% means no effect; about half of the hits show no inhibition at the top dose; a quarter of the inactives give rising signals
# Target sequence (P00811 whole entry, looked up): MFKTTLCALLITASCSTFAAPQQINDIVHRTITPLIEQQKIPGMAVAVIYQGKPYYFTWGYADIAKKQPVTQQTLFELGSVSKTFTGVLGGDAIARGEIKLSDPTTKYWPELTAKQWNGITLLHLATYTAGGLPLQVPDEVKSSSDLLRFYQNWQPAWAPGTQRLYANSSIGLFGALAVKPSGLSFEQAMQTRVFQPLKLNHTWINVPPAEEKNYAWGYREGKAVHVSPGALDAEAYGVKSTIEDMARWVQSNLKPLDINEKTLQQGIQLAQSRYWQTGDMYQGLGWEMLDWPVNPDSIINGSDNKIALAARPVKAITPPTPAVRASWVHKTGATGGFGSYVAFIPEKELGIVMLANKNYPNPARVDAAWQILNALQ
#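 AmpC in 20 mM phosphate buffer pH 7.0 was preincubated 15 min at room temperature with compounds. Nitrocefin (800 uM stock) was then added and hydrolysis followed at 480 nm every 20 s for 4 min.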
# Active calls of the source: *; ? = inconclusive; & = joins results of further samples; [ ] = dose if it differs, or a comment. Potency means the concentration at half of the fitted maximal effect. The list is partial. The share of hits here may be higher or lower than overall.
Structure | AmpC inh no det
Cc1ccc(S(=O)(=O)NC(CC(=O)O)c2ccco2)cc1 (stereo not drawn) | -7%
COc1ccc2c(Cl)c(-c3nnc(SCC(N)=O)n3C)sc2c1 | 62%
Cn1c(=O)c2c(nc(Br)n2CCc2ccccc2)n(C)c1=O | 31%
COCCn1c(=O)c(-c2cc(F)cc(F)c2)nc2cnc(Nc3cccc(OC)c3)nc21 | 24%
COc1ccc(C(c2sc3ncnn3c2O)N2CC(C)OC(C)C2)cc1OC (stereo not drawn) | 10%
Cc1nn(Cc2ccc(F)cc2)c(C)c1NC(=O)c1cnn2cccnc12 | 40%
CCOC(=O)C(C)Oc1cccc2c(=O)n(CC(=O)Nc3ccc4c(c3)OCCO4)ccc12 (stereo not drawn) | 19%
O=C(CSCc1ccccc1Cl)N1CCN(c2ccccn2)CC1 | 62%
CCOc1nc(-c2ccc(OC)cc2)ccc1-c1noc(-c2ccncc2)n1 | 22%
Cc1cc2nc(C3CCN(CC4COc5ccccc5O4)CC3)[nH]c2cc1C (stereo not drawn) | 18%
COc1ccc(OC(C)C(=O)Nc2cccc(OC)c2)cc1 (stereo not drawn) | 13%
Cc1ccc2nsnc2c1S(=O)(=O)NCc1ccc2c(c1)OCO2 | -5%
CC(C)n1c(N2CCN(C(=O)NCc3ccccc3)CC2)nc2ccccc21 | 37%
CCOC(=O)N1CCN(C(=O)c2ccccc2-c2ccccc2)CC1 | 43%
CCOC(=O)CSc1nnc(-c2ccccc2OC)o1 | 7%
Cc1nc2[nH]onc2c2nccc(=O)c12 | -3%
Cc1cc(OCC(=O)N2CCCC2)ccc1Cl | 12%
O=C(CSc1nnnn1-c1ccc2c(c1)OCCO2)OC1CCCCC1 | -4%
Cc1nc2ccc(F)cc2cc1C(=O)NC(C)C | 1%
O=C(O)c1cn(-c2ccccc2)nc1-c1ccncc1 | 1%
OCCN(Cc1ccccc1)Cc1ccccc1F | -3%
CCCc1nc(SCC(=O)Nc2ccccc2OC)c2c(=O)n(C)c(=O)n(C)c2n1 | 2%
COc1cccc(Cn2c(=O)c(-c3ccccc3)nc3cnc(N4CCNCC4)nc32)c1 | 90%
c1cncc(CNCCN2CCNCC2)c1 | 4%[5.75 µM]
COC(=O)C1C2C=CC3(CN(c4ccc(Cl)c(F)c4)C(=O)C13)O2 (stereo not drawn) | 23%
O=C(CSc1nnc(-c2ccco2)n1Cc1ccccc1)NC(=O)NCc1ccco1 | 14%
CSc1nc(NC2CCCC2)c([N+](=O)[O-])c(NC2CCCC2)n1 | -8%
Cc1cccc2cc(CN(CC3CCCO3)C(=O)c3cccnc3)c3nnnn3c12 (stereo not drawn) | 100%
Cc1c(NC(=O)Nc2ccc3c(c2)OCO3)c(=O)n(-c2ccccc2)n1C | -2%
CCC[C@H](Sc1nc(N)nc2nc[nH]c12)C(=O)O | 0%[5.75 µM]

# Following part
Structure | AmpC inh no det
CN1CCN(c2ncnc3ccc(-c4ccoc4)cc23)CC1 | 19%
CCOCCCn1c(=S)[nH]c2cc(C(=O)NCCOC)ccc2c1=O | -6%
Cc1ccc(N2CCN(C(=O)N3CCCC3)CC2)cc1Cl | 94%
C/C=C/C=[N+](\[O-])C(C)/C(=N/O)c1ccc(F)cc1 (stereo not drawn) | -6%
Oc1ccccc1-c1cc(C(F)(F)C(F)F)nc(-c2ccccc2)n1 | -9%
CC(=O)N=C1SC2CS(=O)(=O)CC2N1c1ccccc1Cl (stereo not drawn) | 1%
COCC(=O)N1CCC2(CC1)CCN(c1ccc(-c3ccccc3)cc1)CC2 | -3%
O=C(NCCN1CCc2ccccc2C1)Nc1ccc(F)cc1 | 4µM*[single pt active]
O=C(C1CC(c2ccccc2O)=NO1)N1CCCC1 (stereo not drawn) | 5%
CCS(=O)(=O)N1CCC(C(=O)NCc2ccc(F)cc2Cl)CC1 | 7%
C[C@H](N)CN1CCc2ccc(Br)cc21 | 4%
COC(=O)[C@@]1(Cc2ccc(OC)cc2)[C@H]2c3cc(C(=O)N4CCCC4)n(CCF)c3C[C@H]2CN1C(=O)c1ccccc1 | 151%
Cc1cc(Oc2ccc(-c3ccccc3)cc2)nc(N2CCOCC2)n1 | 45%
Cc1cc(C)nc(SCC(=O)Nc2ccc(Br)cn2)n1 | 9%
COc1ncc2ncc(=O)n(Cc3cccs3)c2n1 | 0%
O=C(Cn1c(=O)oc2cc(S(=O)(=O)N3CCCC3)ccc21)NC1CCCc2ccccc21 (stereo not drawn) | 2µM*
NC1=NC(c2ccc(F)cc2)n2c(nc3ccccc32)N1 (stereo not drawn) | 10%
COc1ccc(C2CC(=O)C3=C(C2)Nc2ncnn2C3c2ccccc2C)c(OC)c1 (stereo not drawn) | 60%
COc1cc(CNC(=O)CCCCCCC(C)C)ccc1O | 43%&21%
O=C(CCSc1nnc2scc(-c3ccccc3)n12)NCc1ccc2c(c1)OCO2 | 11%
COC(=O)[C@H](Cc1ccccc1)NC(=O)N1CCN(Cc2ccccc2)CC1 | 56%
Cc1oc(-c2ccc(Cl)cc2)nc1CN1CCC(C(=O)NCc2ccco2)CC1 | 72%
CCC(=O)Nc1ccc(C(=O)Nc2ccc3c(c2)OCO3)cc1 | 2%
O=c1cc(CSc2ccccn2)nc(N2CCN(c3ccccc3)CC2)[nH]1 | 6%
COc1cc(OC)cc(C(=O)N2c3ccc(F)cc3CCC2C)c1 (stereo not drawn) | 58%
COc1ccc(CNC(=O)Cc2nn(C)c(=O)c3ccccc23)cc1 | 3%
COCCNC(=O)C1c2ccccc2C(=O)N(CCOC)C1c1ccc(F)cc1 (stereo not drawn) | 26%
COc1ccccc1CN1CCCC2(CCN(S(=O)(=O)c3ccccc3)CC2)C1 | 30%
N#Cc1cccc(-c2nc(Nc3ccccc3)c3ccccc3n2)c1 | 10%
COC(=O)C1=C(C)N(C)C(=O)NC1c1ccc(C)cc1 (stereo not drawn) | -3%

# Next part (2 carried over from the part before).
mol	AmpC inh no det
N#Cc1cccc(-c2nc(Nc3ccccc3)c3ccccc3n2)c1	10%
COC(=O)C1=C(C)N(C)C(=O)NC1c1ccc(C)cc1 (stereo not drawn)	-3%
COc1ccc(CN2C(=O)c3cccnc3C2Nc2ccc(OC)c(Cl)c2)cc1 (stereo not drawn)	64%
COc1cc(Br)c(CC(=O)O)cc1OC	-7%
Cc1ccc(C)c(NC(=O)CSc2nnc(-c3ccco3)o2)c1	-4%
COC(=O)C1C(=O)C2=C(CC1C)NC(C)=C(C(=O)OC1CCCCC1)C2c1ccc(N(C)C)cc1 (stereo not drawn)	115%
CCOC(=O)N1CCC(Nc2nc3ccccc3n3nnnc23)CC1	42%
COc1ccccc1C(=O)Nc1ccccc1SC	-2%
CC1(C)CC(=O)c2c(Cc3ccccc3)n[nH]c2C1	4%
O=C(COc1ccccc1Cl)Nc1ccc(Cl)cn1	-14%
O=C=Nc1ccc(Cl)c(Cl)c1	?
Cc1ccccc1OCC(O)Cn1c(=N)n(CCN2CCOCC2)c2ccccc21 (stereo not drawn)	9%
NC(=O)C1(N2CCCCC2)CCN(C(=O)CSc2nc3ccccc3o2)CC1	33%
COc1cc(CN2CCN(c3cccc(Cl)c3)CC2)cc(OC)c1OC	87%
Cc1cccc(OCC(O)Cn2c(NCCCOC(C)C)nc3c2c(=O)[nH]c(=O)n3C)c1 (stereo not drawn)	45%
Cc1nc(SCc2cccc(F)c2)[nH]c(=O)c1C#N	-4%
Cc1ccc2nc(-c3ccncc3)cc(C(=O)N3CCC4(CC3)OCCO4)c2c1	60%
O=c1c2ccccc2nnn1CSc1ccc2c(c1)OCCO2	-2%
CCOC(=O)c1nc(C)[nH]c1C(=O)OCC	-18%
O=C(Nc1ccc(-n2cnnn2)cc1)C1CCCN1C(=O)NC1CCCCC1 (stereo not drawn)	-1%
Cn1c(=O)c2c(ncn2CC(=O)Nc2ccc(Cl)cc2Cl)n(C)c1=O	6%
COCCn1c(SCC(=O)c2ccc3c(c2)OCCO3)nnc1-c1ccoc1C	40%
O=C(NCc1cccs1)C1CCN(S(=O)(=O)c2cccc3nsnc23)CC1	-2%
O=C(Cc1cccs1)NCCn1ccc2ccccc21	-11%
COc1ccc(C(=O)Nc2ccc(S(=O)(=O)NC(C)=O)cc2)cc1	-9%
CCCCCNC(=O)Cc1ccc(OC)cc1	0%
CC1(C)OC(=O)C(=C2CCCN2)C(=O)O1	1%
COc1nc2c(C)cccc2cc1-c1noc(-c2ccncc2)n1	-4%
CCOC(=O)CSc1nc2c(c(=O)n(C)c(=O)n2C)n1CCCc1ccccc1	61%
COCCOC(=O)C1=C(C)NC2=C(C(=O)CC(C)(C)C2)C1c1ccc2c(c1)OCO2 (stereo not drawn)	54%
O=C(c1cc(C(F)(F)F)cc(C(F)(F)F)c1)N1CCC2(CC1)CCN(c1ccccn1)CC2	120%
CN(C)/C=N/c1sccc1C(N)=O	-6%

# Reprinted at random: five compounds from above.
mol	AmpC inh no det
COc1cc(Br)c(CC(=O)O)cc1OC	-7%
Cc1nc(SCc2cccc(F)c2)[nH]c(=O)c1C#N	-4%
O=C(Nc1ccc(-n2cnnn2)cc1)C1CCCN1C(=O)NC1CCCCC1 (stereo not drawn)	-1%
COc1ccc(C(=O)Nc2ccc(S(=O)(=O)NC(C)=O)cc2)cc1	-9%
Cc1ccc2nc(-c3ccncc3)cc(C(=O)N3CCC4(CC3)OCCO4)c2c1	60%

# More entries.
mol	AmpC inh no det
COc1ccc(-c2nn(C)c(=O)c3ccccc23)cc1CNS(C)(=O)=O	18%
NCCC[C@@H](CC(=O)N[C@@H]1CCNC[C@H]1C(=O)N[C@H](CC(=O)N[C@@H](CCC(=O)O)CC(=O)O)Cc1ccccc1)NC(=O)C[C@H](Cc1c[nH]c2ccccc12)NC(=O)[C@@H]1CCCC[C@H]1N	132%
CCC(CC)C(=O)Nc1cc(C)c2c(=O)oc3ccccc3c2n1	-3%
Cc1ccc(C(CC(=O)c2ccco2)SCCO)cc1 (stereo not drawn)	13%
Cc1ccc(S(=O)(=O)NCCOC(=O)Nc2sc(=S)n(C)c2C)cc1	-9%
CCN(Cc1ccccc1)c1ccccc1	-10%
CNC(=O)COC(=O)c1cc(F)c(F)cc1Cl	-15%
O=C(O)CSc1nnc(-c2ccc(S(=O)(=O)N3CCCC3)cc2)n1Cc1ccco1	-4%
O=C(NCc1ccco1)C1CCCN(S(=O)(=O)c2cccc3nonc23)C1 (stereo not drawn)	1%
O=C(c1cnccn1)N1CCC2(CC1)CN(Cc1ccncc1)C2	13%
C1=C(CN2CCOCC2)COc2c1cccc2OC[C@@H]1CNCCO1	23%
O=C(CC1SC(=NC2CCCCC2)NC1=O)Nc1ccccc1 (stereo not drawn)	9%
O=C(Nc1ccc2c(c1)nc1n2CCOC1)c1ccccc1	-6%
O=C1NCC(COCc2ccco2)O1 (stereo not drawn)	5%
O=C(c1cccc(F)c1)N1CCC2(CC1)CCN(c1ccc(-c3ccccc3)cc1)CC2	15%
O=C(Nc1ccc2c(c1)OCO2)c1cccc(S(=O)(=O)N2CCCC2)c1	-8%
Cc1csc2nc(CNS(=O)(=O)N(C)C)cn12	14%
Cc1ccc(S(=O)(=O)N(CC(=O)NCc2ccncc2)C2CCCCC2)cc1	52%
COc1ccc(Oc2ncc3nc(-c4ccc(F)cc4)c(=O)n(C4CC4)c3n2)cc1	11%
Nc1c(NCc2ccccc2)c2ccccc2oc1=O	-9%
CCSc1ccc2nnc(-c3ccc(F)cc3)n2n1	32%
COc1ccc(N2C(=O)C3CCCN3C2c2ccccc2Cl)cc1 (stereo not drawn)	29%
Cc1ccc(-n2c(SCC(=O)OC(C)C)nnc2-c2ccco2)cc1	52%
CCOC(=O)C1CCN(C(=O)COc2ccc(S(=O)(=O)NC(C)C)cc2)CC1	14%
C=CCC(CC=C)(C(=O)O)c1ccccc1	-4%
O=C(NCC(c1cccnc1)N1CCN(c2ccccc2)CC1)OCc1ccccc1 (stereo not drawn)	65%
COc1ccc(CC(=O)NCc2ccccn2)cc1OC	33%
Cc1cc(N/C(=N\S(=O)(=O)c2ccc(Cl)cc2)c2ccc(F)cc2)no1	-6%
CCOc1cccc(OCCCCN2CCOCC2)c1	18%
O=C(Nc1nc(-c2cccs2)c(-c2ccccc2)s1)c1ccco1	-22%

# Further compounds.
mol	AmpC inh no det
COc1ccccc1N(CC(=O)NCc1ccccc1)S(C)(=O)=O	24%
O=C(O)c1ccccc1C(=O)Nc1ccc(S(=O)(=O)Nc2nccs2)cc1	-3%[12.8 µM]
COc1cc(C(=O)N2CCN(S(=O)(=O)c3ccc(C)cc3)CC2)ccc1OCc1c(C)noc1C	102%
COC(=O)[C@H](CCSC)NC(=O)NCc1ccc(S(N)(=O)=O)cc1	-9%
N#CCSc1nnc(-c2ccc(S(=O)(=O)N3CCOCC3)cc2)n1CC1CCCO1 (stereo not drawn)	8%
CC(NS(=O)(=O)c1ccccc1)C(c1cccs1)N1CCN(c2ccccc2)CC1 (stereo not drawn)	1%
Cc1cccc(NC(=O)C2CCCN2C(=O)OCC(C)C)c1 (stereo not drawn)	12%
Cc1c(C(=O)N2CCCCCC2)oc2ccccc12	34%
O=C1CN(C(=O)c2ccccc2)c2ccccc2N1	-9%

# Reformatted field by field: entries from further up
> Cc1cccc(NC(=O)C2CCCN2C(=O)OCC(C)C)c1 (stereo not drawn)
  AmpC inh no det: 12%
> O=C(O)c1ccccc1C(=O)Nc1ccc(S(=O)(=O)Nc2nccs2)cc1
  AmpC inh no det: -3%[12.8 µM]
> COC(=O)[C@H](CCSC)NC(=O)NCc1ccc(S(N)(=O)=O)cc1
  AmpC inh no det: -9%
> CC(NS(=O)(=O)c1ccccc1)C(c1cccs1)N1CCN(c2ccccc2)CC1 (stereo not drawn)
  AmpC inh no det: 1%
